Source: PubChem BioAssay
FGF22 binding: binders of human FGF22 protein, primary screen, FGF22 synaptogenesis inhibitor project, biophysical, thermal shift, single point | hit rate 1.5% among 340,000 | recombinant FGF22 thermal shift, SYPRO orange fluorescence; percent of sucrose octasulfate shift, DMSO zero | Fibroblast growth factor 22 (Homo sapiens), Q9HCT0 | AID 651658, 2012 | calls only at 9.99 µM;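 active means melting point raised past a set limit in the mean and every replicate; inconclusive means no clear call; three in four hits are not shown here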
Target sequence (Q9HCT0 whole entry, looked up): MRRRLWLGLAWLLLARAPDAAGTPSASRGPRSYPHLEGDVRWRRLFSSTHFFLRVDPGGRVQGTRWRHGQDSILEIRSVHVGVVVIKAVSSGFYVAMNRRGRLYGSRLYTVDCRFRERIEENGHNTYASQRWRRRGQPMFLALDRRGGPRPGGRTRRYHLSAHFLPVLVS
MLL AF4-AF9 inh: inhibitors of AF4 peptide binding to AF9, primary screen, biochemical, AlphaScreen, biotin-AF4 peptide, FLAG-AF9, single point. Protein AF-9 (Homo sapiens), P42568. inhibition, % at 10 µM. hit rate 0.47% among 350,000;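 active means every replicate reaching a set inhibition limit, whatever the replicate mean, cut at about 25% in these data; inconclusive means mean inhibition reaches that limit but some replicates miss it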;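 further: 0% = plate neutral control median and 100% = total signal loss; the record names both 10 and 1 µM as test concentration; the first replicate is given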
E coli growth: E. coli growth inhibition, primary screen, OD600; Escherichia coli growth, 23 h; active compounds read low; OD600 absorbance (no concentration beside the values); hit rate 0.21% among 330,000;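 active means OD600 absorbance below the run mean of sample wells minus 3.6 SD, in any replicate, cut at about 0.56 in these data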;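 further: stock transfer was 300 nL into about 60 µL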
HNF4A DNA FP: change in binding of human HNF4A to DNA, primary screen, biochemical, fluorescence polarization, FITC-DNA; hit rate 0.3% among 360,000; 1 h; activity change, % at 10 µM; AID 1224865, 2016; in the data active means activity change above about 30%, passing the limit was not always enough;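 further: controls were the assay level and a saturating level of protein; the project sought stronger binding though the title names inhibitors; some compounds called inactive have numbers as strong as hits; positive values seem to mean higher polarization but the record does not say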
Target sequence (P41235 whole entry, looked up): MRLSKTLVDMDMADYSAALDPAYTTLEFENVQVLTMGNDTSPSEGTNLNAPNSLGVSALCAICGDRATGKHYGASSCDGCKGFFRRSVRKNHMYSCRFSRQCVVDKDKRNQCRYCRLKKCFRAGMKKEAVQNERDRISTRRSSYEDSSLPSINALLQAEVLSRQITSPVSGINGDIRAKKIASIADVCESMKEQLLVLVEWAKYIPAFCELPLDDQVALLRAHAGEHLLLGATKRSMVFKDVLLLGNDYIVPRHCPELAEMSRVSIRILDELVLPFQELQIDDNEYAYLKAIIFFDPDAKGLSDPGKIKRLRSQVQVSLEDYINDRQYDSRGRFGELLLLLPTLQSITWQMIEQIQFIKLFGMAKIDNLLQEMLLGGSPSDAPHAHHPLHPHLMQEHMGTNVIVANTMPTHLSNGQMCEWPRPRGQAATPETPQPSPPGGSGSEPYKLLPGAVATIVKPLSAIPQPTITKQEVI
ALR inh: inhibitors of human ALR sulfhydryl oxidase, primary screen, biochemical, H2O2 detection, HRP-luminol luminescence, single point | FAD-linked sulfhydryl oxidase ALR (Homo sapiens), P55789 | purified ALR, DTT oxidation | inhibition, % (test concentration not listed) | hit rate 3.8% among 290,000;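 active means mean and each replicate at 75% or more; inconclusive means only one of the two met; inactive means neither met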;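 further: stock transfer was 7.5 nL into about 7.5 µL; 0% = neutral wells and 100% = wells with inactivated enzyme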
Target sequence (P55789 whole entry, looked up): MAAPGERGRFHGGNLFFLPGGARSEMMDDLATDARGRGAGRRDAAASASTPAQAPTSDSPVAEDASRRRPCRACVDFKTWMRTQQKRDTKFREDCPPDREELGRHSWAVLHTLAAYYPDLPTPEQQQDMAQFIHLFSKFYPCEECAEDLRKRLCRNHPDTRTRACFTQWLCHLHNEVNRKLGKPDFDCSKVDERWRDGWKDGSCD
rRNA inh HTS: reduced GFP signal of wild-type E. coli, primary screen, bacterial rRNA inhibitor project, GFP/RFP fluorescence, OD600, single point; hit rate 1.6% among 350,000; GFP signal change (wild-type ribosome), % (test concentration not listed); AID 720706, 2013; E. coli WT GFP vs humanized-ribosome RFP mutants, 24 h; active compounds read low; DMSO median 0, no signal -100;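 active means significant combined selectivity score with lowered wild-type GFP, culture density cut under 30%, mutant RFP and density less affected; inactive means any of these conditions unmet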; further: one replicate is shown; some compounds called inactive have numbers as strong as hits
Vif A3G: inhibitors of Vif binding to APOBEC3G peptide, primary screen, biochemical, TR-FRET, GST-Vif 1-94, biotin-A3G peptide, dose response retest (AID 1117319) | Virion infectivity factor (Human immunodeficiency virus type 1 group M subtype B (isolate … | TR-FRET GST-Vif / biotin-A3G peptide binding; higher % means a stronger effect; test concentration not given here; strong numbers were not always called active | inhibition, %, or IC50 in µM where a hit was titrated | hit rate 0.57% among 260,000;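 active means above the screen mean plus three standard deviations and confirmed in dose response; inconclusive means results disagree or hit not tested in dose response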;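 further: Vif residues 1-94 fused to GST binding biotinylated APOBEC3G peptide 110-148; 0% = full assay without inhibitor and 100% = GST in place of GST-Vif; retest series ran down from 100 µM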
rRNA inh HTS OD600: further read-out of rRNA inh HTS, marked with its call; OD600 change, %; measured here: OD600 growth;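 optical density of the mix in the first replicate; 0 = DMSO median and -100 = no signal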
rRNA inh HTS RFP: further read-out of rRNA inh HTS, marked with its call; RFP signal change, %; measured here: RFP humanized mutant strains;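 first replicate; 0 = DMSO median and -100 = no signal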
* hit, by the source's call; i = inactive; ? = inconclusive; . = not tested or not shown; & = joins results of further samples. Not all compounds are listed, so the mix of outcomes need not match the whole.

SMILES | FGF22 binding | MLL AF4-AF9 inh | E coli growth | HNF4A DNA FP | ALR inh | rRNA inh HTS | rRNA inh HTS OD600 | rRNA inh HTS RFP | Vif A3G
Brc1ccccc1-c1nc2c3ccccc3ncn2n1 | i | -2.3 | 0.671 | 1.5 | 4.3 | -22.6 | -19.1 | -4.0 | -8.2%
COc1ccc(CN2C[C@H](C)[C@@H](OC)CN(C)C(=O)c3cc(NC(C)=O)ccc3OC[C@@H]2C)cc1 | i | -1.3 | . | . | . | -1.2 | 1.8 | 0.8 | .
Cc1ccc(CNC(=O)CCc2c(C)nn(-c3ccc(N4CCOCC4)nn3)c2C)cc1 | i | -0.3 | 0.705 | 2.1 | 4.5 | 16.9 | 17.8 | 4.2 | -4.4%
O=C(CSc1nc2c(c(=O)n1-c1ccc(Br)cc1)SCC2)NCc1ccco1 | i | -3.8 | 0.684 | -3.3 | -1.4 | 4.3 | 15.6 | 12.5 | -4.6%&-6.0%
Cc1nnc2n(-c3ccccc3)c(=O)c3c4c(sc3n12)COC(C)(C)C4 | . | . | 0.772 | -0.7 | 2.1 | . | . | . | -1.8%
Cc1ccc(OCc2cc(C(=O)N(C)Cc3cc(C4CC4)n[nH]3)no2)cc1C | i | 1.4 | 0.672 | 0.3 | -1.0 | -28.5 | -41.5 | -3.1 | .
N#Cc1ccccc1S(=O)(=O)N1CCC(C(=O)Nc2cccc(C(=O)NC3CC3)c2)CC1 | i | -1.3 | 0.676 | 0.9 | . | -10.0 | -4.4 | -2.0 | 6.7%
c1ccc(Cn2ccnc2C2OCCO2)cc1 | i | -1.9 | . | 4.0 | . | 11.8 | 24.1 | 1.2 | -0.7%
COc1ccc(/C(C)=N/NC(=O)Cc2ccc(Cl)cc2)cc1 | i | -9.9 | . | 8.4 | . | 12.8 | 10.0 | 0.5 | .
C/C=C/c1ccc2c(c1)O[C@H](CN(C)Cc1cccnc1)[C@H](C)CN([C@@H](C)CO)S2(=O)=O | i | -0.3 | . | . | . | -3.7 | 0.9 | 1.5 | .
Cc1cc(N2CC(C)OC(C)C2)nc2ccccc12 (centres undefined) | i | -3.9 | 0.631 | -0.7 | -13.3 | 0.4 | -5.5 | -2.3 | -4.7%
CCOC(=O)c1c(C)[nH]c(C(=O)C(C)OC(=O)c2cccc(OCc3c(C)noc3C)c2)c1C (centres undefined) | . | . | 0.708 | -2.8 | -6.7 | . | . | . | 0.3%&2.3%
O=C(O)c1cccc(N2C(=O)c3ccc(C(=O)c4cccc([N+](=O)[O-])c4)cc3C2=O)c1 | i | 2.2 | 0.668 | -7.8 | -0.4 | 14.0 | 12.6 | 2.0 | ?
CC(C)(C)c1ccccc1OCC(=O)Nc1ccccc1C(=O)NCc1cccnc1 | i | 9.0 | 0.676 | -1.1 | -37.0 | -10.3 | -14.7 | 0.4 | .
COc1ccc(-c2ccc([C@H]3[C@H](C#N)N(C(=O)c4cccc(F)c4)[C@H]3CO)cc2)cc1 | i | -1.6 | . | . | . | -3.9 | -4.8 | -1.0 | .
Clc1ccccc1Sc1cnc2ccccc2n1 | . | . | 0.68 | 1.6 | 0.0 | . | . | . | -23.9%
CC(C)(C)C(CO)NC(=O)c1ccc[nH]1 (centres undefined) | i | -1.7 | 0.628 | 1.3 | -0.4 | 4.4 | 13.6 | 4.4 | .
COc1cc(NC(=S)N(C)CCC#N)c(OC)cc1Cl | i | -1.5 | 0.647 | -0.8 | -17.1 | 13.0 | -1.6 | 1.1 | -10.6%
O=S(=O)(Nc1ccc(O)c2ccccc12)c1cccs1 | i | -5.2 | 0.625 | -1.2 | 98.8* | 2.8 | -25.5 | -0.1 | .
O=C(COc1c(Br)cc(Br)c2cccnc12)Nc1ccccc1F | i | -19.9 | 0.658 | -3.8 | -29.9 | -10.3 | -4.2 | 16.3 | -23.1%
CCOc1ccc(S(=O)(=O)Nc2cccc(C(=O)NCC(c3ccco3)N3CCCC3)c2)cc1 (centres undefined) | i | 0.8 | 0.673 | -1.1 | -2.3 | . | . | . | 8.5%
CC(C)C[C@@H](CNCC(=O)[C@H](CC(C)C)NC(=O)c1[nH]cnc1C(=O)N[C@@H](C)CN)NC(=O)c1nc[nH]c1C(=O)N[C@@H](CC(C)C)C(=O)O | i | 0.9 | . | 1.4 | . | 4.6 | 3.1 | -7.6 | .
CC1CCCN(c2ccc(F)cc2N)C1 (centres undefined) | i | 9.1 | 0.739 | 2.4 | -4.2 | 3.3 | -2.9 | 28.4 | 19.3%
COc1cccc(OC)c1C(=O)n1nc(C)cc1C | . | . | 0.657 | -2.5 | . | . | . | . | 72.9%
Nc1c(Cl)ncnc1N1CCCC1 | i | 0.0 | 0.685 | 0.3 | . | 12.7 | 8.9 | -4.8 | -3.3%
Cc1ccccc1NC(=O)CSc1nc2ccc(Nc3nc(N4CCOCC4)nc(N4CCOCC4)n3)cc2s1 | i | -8.1 | 0.734 | 3.2 | . | 1.1 | 11.6 | -1.8 | .
CCc1n(CC(O)COCc2ccccc2)c2ccccc2[n+]1C (centres undefined) | i | -4.2 | 0.676 | -1.5 | . | 21.7 | 14.6 | -0.6 | 9.3%
CC1(C(=O)NS(=O)(=O)C2CC2)CCCN(C(=O)c2cccs2)C1 (centres undefined) | i | -1.4 | . | 3.0 | . | 11.2 | 16.5 | 0.5 | .
Cc1cc2c(cc1S(=O)(=O)Nc1ccc(F)cc1)n(C)c(=O)c(=O)n2C | i | 6.2 | 0.672 | 3.2 | -9.9 | -4.3 | 8.6 | 0.9 | .
CCOCCCN(C(=O)Nc1ccc(CC)cc1)C1CCN(C(C)=O)CC1 | . | . | 0.707 | 0.6 | -4.3 | . | . | . | -6.0%
Cc1cc(C)cc(OCC(=O)Nc2ccc(CN3CCCCC3)cc2)c1 | i | 0.2 | 0.708 | 5.1 | -2.0 | 4.9 | -0.4 | -1.7 | 1.4%
CCCCOc1cccc(C(=O)N(Cc2ccccc2)C2CCS(=O)(=O)C2)c1 (centres undefined) | i | -4.0 | 0.649 | 3.9 | -7.2 | -2.6 | 1.0 | -1.6 | .
COc1ccc(-n2nc(C(=O)NCC(=O)Nc3cc(OC)ccc3OC)c3ccccc3c2=O)cc1 | i | 1.3 | 0.711 | 0.7 | -3.8 | -2.8 | -3.1 | -1.4 | .
O=C(CN1C(=O)NC2(CCCC2)C1=O)NCCN1C(=O)S/C(=C\c2ccccc2F)C1=O | . | 3.5 | 0.653 | 0.9 | 17.9 | 0.2 | -8.6 | 0.4 | 2.5%
CC(C)Sc1nc(N)c2c3c(sc2n1)CN(C)CC3 | . | . | 0.74 | 14.5 | . | . | . | . | -2.4%
Cc1nc2c(sc3nc4c(cc32)COC(C)(C)C4)c(=O)o1 | . | . | 0.691 | -4.3 | . | . | . | . | -1.9%
Cc1noc(C)c1NC(=O)N(C)C[C@H]1OCCCC[C@@H](C)Oc2ccc(NC(=O)Nc3ccc(F)cc3)cc2C(=O)N([C@H](C)CO)C[C@@H]1C | i | -3.5 | . | . | . | -1.6 | 0.2 | -1.3 | .
CC1CCCCN1C(=O)Cn1cc(C=O)c2ccccc21 (centres undefined) | i | -3.1 | 0.683 | 0.0 | -18.5 | 3.9 | 3.0 | -1.1 | -4.2%
O=C1c2oc3ccc(Br)cc3c(=O)c2C(c2cccc(F)c2)N1CCO (centres undefined) | . | . | 0.715 | 2.3 | -0.4 | . | . | . | ?
CC(C)CC#Cc1cnc2c(c1)C(=O)N([C@@H](C)CO)C[C@H](C)[C@H](CN(C)C(=O)c1ccc3c(c1)OCO3)O2 | i | -1.6 | . | . | . | -0.9 | 3.0 | -1.1 | .
O=S(=O)(c1ccc(Br)cc1)c1cnc2ccccc2n1 | i | -0.2 | 0.708 | -2.2 | 8.5 | -20.5 | -19.4 | 0.1 | -37.1%
CCCCC(c1nnnn1CC1CCCO1)N1CCN(c2ccccc2)CC1 (centres undefined) | i | 1.6 | 0.671 | -3.4 | . | 4.3 | 4.9 | -0.7 | 32.6%
CC(C)(C)c1cc(NC(=O)c2c(F)cccc2Cl)n(-c2ccccc2)n1 | i | 1.6 | 0.69 | -1.1 | -0.2 | -30.4 | -35.0 | -8.8 | 0.5%
COc1ccc(NS(=O)(=O)c2cccc(C(=O)NNC(=O)CNC(=O)c3cccc(C)c3)c2)cc1 | i | -0.9 | 0.736 | -1.4 | 5.2 | 5.6 | 6.2 | 1.7 | 5.9%
Fc1ccc(Cl)cc1/C=N/n1cnnc1SCc1ccccc1 | . | . | . | -0.5 | -2.6 | . | . | . | -2.1%
COc1ccc(NC(=O)NNC(=O)C(C)Oc2ccc3ccccc3c2)cc1 (centres undefined) | i | -3.1 | 0.73 | 1.9 | -8.2 | 3.1 | -0.3 | 0.6 | 0.5%
O=C(C[C@H]1CC[C@@H](NS(=O)(=O)c2ccccc2)[C@H](CO)O1)N1CCc2ccccc2C1 | i | -5.2 | . | . | . | -0.7 | -3.9 | -0.9 | .
CCOC(=O)C1(Cc2cccc(F)c2)CCN(Cc2nc(CC)[nH]c2C)CC1 | i | 8.1 | 0.715 | 75.4* | 0.6 | -4.7 | -5.2 | -0.5 | 5.2%
COc1cc(C2C(C(C)=O)=C(O)C(=O)N2CCc2c[nH]c3ccccc23)ccc1O (centres undefined) | . | . | 0.706 | 2.0 | 31.4 | . | . | . | 23.7%
CO[C@H]1CN(C)C(=O)c2ccc(NC(=O)c3cnccn3)cc2OC[C@H](C)N(C(=O)C2CC2)C[C@H]1C | i | -1.8 | . | . | . | 4.0 | 2.4 | 0.7 | .
CCOC(=O)[C@]12CCC=C1N(Cc1ccc(Cl)cc1Cl)C(=O)[C@H](CC(=O)N1CCC(c3ccccc3)CC1)C2 | i | -71.2 | . | 7.5 | . | 3.9 | 7.3 | 0.2 | .
O=C(NCCc1c[nH]c2ccccc12)c1cnccn1 | i | 0.9 | 0.65 | 0.7 | 6.4 | . | . | . | -1.9%
COC(=O)CSC1=C(C#N)C(c2ccc(F)cc2)CC(=O)N1 (centres undefined) | i | -12.0 | 0.667 | -0.5 | . | 3.1 | 3.0 | -0.5 | 2.1%
O=C(Cc1ccncc1)NCC[C@@H]1CC[C@H](NC(=O)C2CCOCC2)[C@@H](CO)O1 | i | 0.0 | . | . | . | 3.6 | 0.8 | -1.7 | .
CCC(=O)N1C[C@H](O)COC[C@@H]2O[C@H](CC(=O)NCc3ccccc3Cl)CC[C@H]21 | i | 2.5 | . | . | . | -0.1 | 9.4 | -3.9 | .

Part of the list above in another layout:
> O=C(NCCc1c[nH]c2ccccc12)c1cnccn1
  FGF22 binding = i	MLL AF4-AF9 inh = 0.9	E coli growth = 0.65	HNF4A DNA FP = 0.7	ALR inh = 6.4	rRNA inh HTS = .	rRNA inh HTS OD600 = .	rRNA inh HTS RFP = .	Vif A3G = -1.9%
> COC(=O)CSC1=C(C#N)C(c2ccc(F)cc2)CC(=O)N1 (centres undefined)
  FGF22 binding = i	MLL AF4-AF9 inh = -12.0	E coli growth = 0.667	HNF4A DNA FP = -0.5	ALR inh = .	rRNA inh HTS = 3.1	rRNA inh HTS OD600 = 3.0	rRNA inh HTS RFP = -0.5	Vif A3G = 2.1%
> O=C(Cc1ccncc1)NCC[C@@H]1CC[C@H](NC(=O)C2CCOCC2)[C@@H](CO)O1
  FGF22 binding = i	MLL AF4-AF9 inh = 0.0	E coli growth = .	HNF4A DNA FP = .	ALR inh = .	rRNA inh HTS = 3.6	rRNA inh HTS OD600 = 0.8	rRNA inh HTS RFP = -1.7	Vif A3G = .
